High-throughput results (PubChem)
TRPML1 inh = inhibitors of human TRPML1 channel; TRPML1-inducible cells, Ca2+ dye fluorescence, FDSS; stronger effect = lower value; inhibition of EC80 agonist-evoked calcium signal; activity change, negative = inhibition, % (no concentration beside the values); actives 0.02% (n = 390,000); AID 624415; in the data active means activity change below about -50%; inconclusive means about -30% to -50%; inactive means above about -30%;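 further: stimulus is agonist 54-4 at its EC80 concentration; on the % scale 0 is the no-effect control and ±100 the full control effect; compound concentration not given in the record; the text of the record puts the active cut at -80%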
Target sequence (Q9GZU1 whole entry, looked up): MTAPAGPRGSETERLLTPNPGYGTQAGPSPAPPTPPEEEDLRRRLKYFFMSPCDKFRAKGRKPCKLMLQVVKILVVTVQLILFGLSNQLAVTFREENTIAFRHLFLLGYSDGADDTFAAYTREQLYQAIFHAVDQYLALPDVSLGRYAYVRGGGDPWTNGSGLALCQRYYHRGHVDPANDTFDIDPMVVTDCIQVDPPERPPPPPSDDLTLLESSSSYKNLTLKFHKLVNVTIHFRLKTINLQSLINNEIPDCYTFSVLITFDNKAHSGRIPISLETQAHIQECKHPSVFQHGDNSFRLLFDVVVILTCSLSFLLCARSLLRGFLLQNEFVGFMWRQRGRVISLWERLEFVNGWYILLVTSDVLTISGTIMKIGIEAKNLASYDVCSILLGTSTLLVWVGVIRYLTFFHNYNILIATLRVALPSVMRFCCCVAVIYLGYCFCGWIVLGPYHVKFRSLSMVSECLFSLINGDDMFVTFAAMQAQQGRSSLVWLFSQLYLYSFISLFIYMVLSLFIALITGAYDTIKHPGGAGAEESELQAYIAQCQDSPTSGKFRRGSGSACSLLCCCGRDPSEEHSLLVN
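Calcium fluorescence in TRPML1-DL cells induced overnight with Tet: a 110 s read after compound pin addition, then a 110 s antagonist read after challenge with 54-4 at 4 uM final (EC80).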
gsp ag = activates gsp, the McCune-Albright syndrome mutation; AID 624287; Potency, µM (highest dose often 76.9 µM), for inactives: at the highest dose activation (cAMP increase), hits mostly activators; gsp mutant cells, cAMP HTRF, 30 min; control for the full effect not named in the record; actives 0.13% (n = 340,000); active = well fitted activation curve with a large enough effect; inconclusive = small, poorly fitted or top-dose-only effect, or another doubt; inactive = no such curve, though single readings can be large or run the other way; cell line not stated here;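 further: phosphodiesterase inhibitor Ro 20-1724 added with compounds to block cAMP breakdown; potency means the concentration at half of the fitted maximal effect; nearly all actives have a fitted effect of over 60% in size; about a fifth of the inactives were tested at one dose only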
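Cells stably selected in G418 were plated at 2000/well, grown 16-24 hr, then given compounds in DMSO with the PDE inhibitor […] (300 uM solution added) for 30 min at 37C; cAMP was read by HTRF.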
Menin MLL FP FL = displaces fluorescein MLL peptide from human menin. Fluorescence polarization, fluorescein-MLL peptide displacement from menin. FP activity change, % at 61.4 µM. 290,000 tested, under 10 active; inconclusive = falling polarisation curve, or a change in total fluorescence; inactive = total fluorescence flat and polarisation flat or rising; no compound was filed as active; the % refers to the polarisation; negative = inhibition;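 further: % of control where 0% means no effect; inhibitors lower the polarisation; unlabelled MLL peptide was the positive control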
ClpP mod = qHTS Assay for Activators of ClpP; purified B. subtilis ClpP, FRET peptide cleavage, 20 min; actives 1.9% (n = 340,000); AID 651965, 2013; ATP-dependent Clp protease proteolytic subunit (Bacillus subtilis (strain 168)), P80244; Potency, µM (doses to about 57.5 µM), for inactives: at the top dose activity change, negative = active; active = well fitted falling curve with a large enough effect; inconclusive = small, poorly fitted or top-dose-only effect; inactive = no such curve, though single readings can be large or run the other way; further: potency means the concentration at half of the fitted maximal effect; the source files actives as falling curves though it sought activators and does not explain the sign; nearly all actives have a fitted effect of over 65% in size; many hits overshoot -100%
Target sequence (P80244 whole entry, looked up): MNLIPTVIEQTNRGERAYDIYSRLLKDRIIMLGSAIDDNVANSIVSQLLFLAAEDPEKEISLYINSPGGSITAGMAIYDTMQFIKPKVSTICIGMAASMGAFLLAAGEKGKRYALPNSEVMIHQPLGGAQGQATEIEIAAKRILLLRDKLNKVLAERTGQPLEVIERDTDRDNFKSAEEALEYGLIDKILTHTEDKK
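Purified B. subtilis ClpP, 10 microg/mL final in Tris/HCl pH8 with KCl, BSA, glycerol and Tween-20, cleaved an Abz/nitrotyrosine-quenched decapeptide. Fluorescence (ex 320, em 430) was read at 0 and 20 min at room temperature. Delta was normalized to 5.8 microM ADEP and DMSO/no-enzyme controls.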
TRPML1 ag = activates the human TRPML1 channel; Q9GZU1; TRPML1-expressing cells, Ca2+ dye fluorescence, FDSS; host cell line not named in the record; reference of the full effect not given here; activation, % (test concentration not listed); actives 0.12% (n = 410,000); in the data active = activation above about 50%; inconclusive = about 30% to 50%; inactive = below about 30%; further: 0% is about no effect; the text of the record puts the active cut at 80%
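Calcium fluorescence on an FDSS kinetic reader gave the read-out. Tet-induced TRPML1-DL cells were plated overnight, dye-loaded (Ca8 with quencher, 45-90 min, room temperature, dark), then read 110 s after compound addition, and again 110 s after 4uM final 54-4 (EC80).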
gsp antag = antagonizes gsp, the McCune-Albright syndrome mutation; gsp-mutant cells, cAMP HTRF, 30 min; control for the full effect not named in the record; Potency, µM (top dose mostly 76.9 µM), for inactives: at the top dose activity change, negative = inhibition, usual class: inhibitors; actives 0.4% (n = 340,000); AID 624288; active = falling curve of any shape with a large fitted effect; inconclusive = falling curve, mostly with a smaller effect; inactive = flat or rising curve; cell line not stated here;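 further: intracellular cAMP measured with PDE inhibitor Ro 20-1724 present during compound exposure; potency means the concentration at half of the fitted maximal effect; on the % scale 0 is the no-effect control and ±100 the full control effect; nearly all actives have a fitted effect of over 65% in size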
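Measurement of cellular cAMP by homogeneous time-resolved fluorescence following a 30 min compound exposure at 37C. The PDE inhibitor […] was present throughout; the assay buffer was DPBS with 0.05% BSA and 0.005% Tween 20.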
Starred values were filed as active, the others as inactive; ? = inconclusive; nt = not tested or not shown; & = joins results of further samples; [ ] = dose if it differs, or a comment.

SMILES	TRPML1 inh	gsp ag	Menin MLL FP FL	ClpP mod	TRPML1 ag	gsp antag
COc1ccc(N2CC(C(=O)Nc3ncccc3C)CC2=O)cc1 (configuration not stated)	-3	?	4.6	0.8%	-0.9	7%
CCOC(=O)N1CCN(C(=O)CSc2nc(C)nc3c2c(=O)n(C)c(=O)n3C)CC1	1	24%	-0.5	1.3%	0.1	-15%
CCNC(=O)C1(C)CCN(Cc2ccc(OC(F)(F)F)cc2)C1 (configuration not stated)	-5	nt	nt	1.3%	-0.2	nt
COc1ccc(CCNC(=O)c2cccn2C)cc1	-6	-5%	nt	2.2%	0.1	-6%
CCc1ccc(-n2c(=O)c3c4c(sc3n(Cc3ccc(F)cc3)c2=O)CCCC4)cc1	-12	nt	nt	-7.8%	1.1	nt
CCn1c(=O)cc(OCC(=O)NCc2cccnc2)c2ccccc21	2	11%	2.1	-7.1%	-1.1	1%
C/C(=N\Nc1nc(N)cc(Cl)n1)c1ccc(Cl)c(Cl)c1	3	12%[15.4 µM]	-9.9	nt	0.9	nt
Cc1ccc(NC(=O)C2CCN(c3nnc(C)c4c(C)n(-c5ccccc5)nc34)CC2)c(Cl)c1	-18	nt	nt	?	2.5	nt
Cc1ccccc1NC(=O)Cn1nc(-c2ccccc2)nc1-c1ccccc1	12	?	6.7	-0.8%	1.2	3%
CCN(CC)CCCN1C(=O)C(=O)/C(=C(/O)c2ccc(C)cc2)C1c1ccccn1 (configuration not stated)	5	12%	-0.2	1.5%	3.1	6%
CC(OC(=O)c1cccn1C)C(=O)Nc1ccc2c(c1)OCO2 (configuration not stated)	-7	-12%[15.4 µM]	-0.9	nt	-0.4	-11%
Cc1ccc(N2CCN(S(=O)(=O)N3CCOCC3)CC2)cc1C	61	-13%	0.8	nt	-0.3	8%
O=C1CC(c2ccsc2)c2cc3c(cc2N1)OCCO3 (configuration not stated)	55	-57%	-0.4	-2.3%	-0.8	7%
CCOC(=O)c1cnn(-c2ccccc2)c1NC(=O)C(F)(F)C(F)(F)C(F)(F)F	4	-38%[inhibitor]	0.5	-2.4%	-0.3	-37%
CCN(CC(=O)Nc1ccc(NC(C)=O)cc1)C(=O)Cc1cccc2ccccc12	-3	-72%[inhibitor]	nt	-3.8%	-0.4	7%
CCOC(=O)c1sc(N(Cc2ccccc2)C(=O)CCl)nc1C	15	-26%[15.4 µM]	nt	nt	0.5	-9%
CC1CCCCN1c1ccc(N)cc1C(N)=O (configuration not stated)	1	1%[15.4 µM]	-1.8	nt	-0.2	6%
COc1ccc(N2CCN(C(=O)c3c(C)oc4ncnc(N5CCCCC5)c34)CC2)cc1	?	nt	nt	-1.7%	0.0	nt
COc1cc(C(=O)NCCOc2ccc(Cl)cc2)ccc1OCc1c(C)noc1C	-16	3%	nt	-2.3%	-0.3	-9%
COc1ccc(CNc2nc(-c3ccccc3)nn2S(=O)(=O)c2ccccc2)cc1	19	nt	nt	-11%	2.7	nt
CCOc1ccc(NC(=O)Nc2nc3ccc(S(C)(=O)=O)cc3s2)cc1	-6	-8%[15.4 µM]	-6.2	-26%	-0.7	13%
Cc1ccc(C)c(NC(=S)NNC(=O)c2cc3c(s2)CCC(C)C3)c1 (configuration not stated)	9	-8%	-0.3	23%	1.7	2%
c1cc(-c2nnc(-c3ccncc3)o2)ccn1	-8	-15%	3.9	-3.8%	-0.9	10%
COC(=O)CSc1nnc(CNc2ccc(F)cc2)o1	21	11%	0.2	-0.9%	-0.9	-8%
Cc1cc(NC(=S)NC(=O)c2ccccc2)ccc1-c1cc2ccccc2oc1=O	-3	-6%[15.4 µM]	10	11%	-0.3	16%
CCOc1ccc(C(=O)Nc2ccc3c(c2)OCO3)cc1OCC	-8	-19%	5.7	11%	-1.0	-8%
Cc1ccc(NC(=O)NC(=S)NC(=O)c2ccccc2)cc1	-12	34%	3.5	-0.6%	-0.2	-15%
CCOC(=O)NC(NCC(O)c1ccccc1)(C(F)(F)F)C(F)(F)F (configuration not stated)	-12	7%	2.1	-1.2%	-0.2	7%
O=C(O)CNC(=S)N(Cc1ccccc1)Cc1cccnc1	1	?	-1.2	0.4%	0.9	-9%
O=C(NCc1cccs1)c1ccc(CSc2nc3cccnc3n2Cc2ccccc2F)cc1	-2	nt	nt	4.4%	0.2	nt
CCOc1ccc(S(=O)(=O)NCCC(=O)NCC(C)(C)N2CCOCC2)cc1	-6	1%	nt	-0.5%	-0.8	2%
CCn1c(SCC(=O)N(C)c2ccccc2)nc2c([nH]c3ccccc32)c1=O	2	1%[15.4 µM]	nt	-11%	1.0	-9%
CCCCCc1c2c(cc(O)c1C(=O)O)OC(=O)c1c(cc(OC)cc1C(=O)CCCC)O2	6	?	-2.7&-1.4	0.6%	1.1	-24%
O=C(COc1ccc(Cl)cc1)N1CCN(C(=O)c2cccs2)CC1	-3	0%[15.4 µM]	3.7	-2.6%	-0.6	-3%
Cn1c(=O)c2c(nc(NCc3ccccc3)n2CCCc2ccccc2)n(C)c1=O	21	23%	1.1	-2.4%	2.7	8%
CCOc1ccccc1NC(=O)CCc1ccc(C)o1	-8	-17%	2.1	-0.6%	1.8	0%
COc1nc(N(C)C)nc(N(C#N)CCOC(C)=O)n1	nt	22%	0.8	-0.3%	nt	17%
CC(C)(C)c1ccc(C(=O)n2cnc3ccccc32)cc1	-6	-8%	0.6	0.7%	0.0	6%
CCN(CC)c1ccc2cc(-c3nc(-c4cc5ccccc5oc4=O)cs3)c(=O)oc2c1	-8	1%[15.4 µM]	nt	nt	15	0%
CN(C)CCn1c(C(=O)O)cc2ccccc21	13	-41%	3.9	-11%	-0.5	4%

3 neighbouring compounds from above:
SMILES	TRPML1 inh	gsp ag	Menin MLL FP FL	ClpP mod	TRPML1 ag	gsp antag
CCNC(=O)C1(C)CCN(Cc2ccc(OC(F)(F)F)cc2)C1 (configuration not stated)	-5	nt	nt	1.3%	-0.2	nt
COc1ccc(CCNC(=O)c2cccn2C)cc1	-6	-5%	nt	2.2%	0.1	-6%
CCc1ccc(-n2c(=O)c3c4c(sc3n(Cc3ccc(F)cc3)c2=O)CCCC4)cc1	-12	nt	nt	-7.8%	1.1	nt

Next section
SMILES	TRPML1 inh	gsp ag	Menin MLL FP FL	ClpP mod	TRPML1 ag	gsp antag
CC(=O)Oc1ccc2ccccc2c1C(NC(=O)Cc1ccccc1)c1ccccc1Cl (configuration not stated)	31	24%	1.6	-2.7%	3.3	-3%
CCc1c(C)nc(SCC(=O)N2CCCCC2CC)[nH]c1=O (configuration not stated)	nt	7%	2.6	1.6%	nt	3%
C=CCNC(=O)CN(c1ccc(OC)cc1OC)S(C)(=O)=O	21	-6%	1.1	0.0%	0.1	-13%
COc1ccc(C)cc1Nc1nc2cc(Cl)c(Cl)cc2nc1-n1nc(C)cc1C	-2	nt	nt	-1.8%	3.4	nt
COc1cccc(N2CCN(C(=O)c3cc4c(s3)-c3c(C)cccc3OC4)CC2)c1	8	nt	nt	3.9%	1.8	nt
Cc1ccc(S(=O)(=O)N2CCC(C(=O)N[C@H](C(=O)NC3CCS(=O)(=O)C3)C(C)C)CC2)cc1 (some centres not stated)	1	17%	-6.9	-7.0%	0.8	10%
Cc1ccc(S(=O)(=O)N2CCOCC2)cc1C(=O)OCC(=O)N(Cc1ccccc1)C(C)C	27	-77%[inhibitor]	nt	1.9%	1.7	-12%
O=C(CN1N=C(c2ccc(Cl)cc2)CCC1=O)NCCc1ccccc1	-8	nt	nt	-0.4%	-0.7	nt
COc1ccc(CNCCNC(=O)c2ccco2)c(OC)c1OC	5	-30%	0.4	3.1%	1.0	11%
CCN1C(=O)[C@H]2[C@@H](c3ccc(C)cc3)N3C(=O)N(c4ccc(OC)cc4)C(=O)[C@@]3(C)[C@H]2C1=O	-13	18%	0.9	0.1%	0.2	5%
CCN(CC)S(=O)(=O)c1ccc(Cl)c(C(=O)OCC(=O)c2c(N)n(C)c(=O)n(C)c2=O)c1	9	18%[15.4 µM]	-4.7	nt	-0.1	-4%
C=CCOC(=O)C1=C(C)Nc2nnnn2C1c1ccc(OC)cc1OC (configuration not stated)	4	-7%	-0.7	-0.8%	-0.7	0%
COc1ccc(OC)c(S(=O)(=O)N2CCc3ccccc32)c1	13	-3%	2.2	1.6%	-0.4	?
Cc1ccc2nc(-c3ccccc3)cc(C(=O)NCC3CCCO3)c2c1 (configuration not stated)	3	10%[15.4 µM]	7.1	nt	0.3	-7%
Cc1ccsc1/C=C(\C#N)C(=O)NCc1ccco1	17	14%	5.1	-6.2%	1.7	15%
CCc1cccc(C)c1NC(=O)Cc1ccsc1	26	-12%	-1.3	nt	1.3	6%
O=C(c1ccc(Cl)c(S(=O)(=O)N2CCCCC2)c1)N1CCN(Cc2ccccc2)CC1	9	13%[15.4 µM]	nt	-3.2%	-0.2	1%
Cc1nc2cc(-c3ccccc3)nn2c(N)c1-c1ccccc1	1	2%	nt	4.4%	-0.3	-4%
Cc1[nH]c(C)c(S(=O)(=O)N2CCN(c3cccc(Cl)c3)CC2)c1C(=O)N1CCCC1	4	-70%[inhibitor]	3.7	-0.3%	0.7	-34%
Cc1ccc(-c2cc(N)n(Cc3ccc(Cl)cc3)n2)cc1	3	-6%	2.3	1.8%	-0.7	-4%
COCc1cc(CN2CCCC(C(=O)c3cccc(C(F)(F)F)c3)C2)ccc1OC (configuration not stated)	27	17%	0.1	0.4%	2.1	-7%
O=C(NCCCc1ccccc1)[C@@H]1Cc2ccccc2CN1	-12	?	7.0	nt	0.4	3%
C/C(CC(=O)Nc1cccc(Br)c1)=N\NC(=O)c1ccc(O)cc1O	7	30%	2.6	-9.3%	2.6	-4%
CN1C2CCC1/C(=C\c1ccc(F)cc1)C(=O)/C2=C/c1ccc(F)cc1	6	0%	3.2	-2.9%	1.8	-2%
Nc1ccc2nc(C3CCCCC3)[nH]c2c1	2	-2%[15.4 µM]	-1.4	nt	-0.4	0%
CCC(=O)c1ccc(/C=C/c2nc3ccccc3n2C)o1	8	28%[15.4 µM]	?	nt	-0.5	8%
Cc1ccc(Sc2ccc(NC(=O)c3ccc(S(C)(=O)=O)cc3Cl)cc2)cc1	-9	32µM*	5.3	4.9%	-0.6	24%
NS(=O)(=O)c1cccc(NC(=O)COc2ccc([N+](=O)[O-])cc2)c1	-2	-17%	6.3	nt	-0.1	2%
c1ccc(CSc2ncn(-c3ccccc3)n2)cc1	-3	0%	2.4	-1.5%	0.0	-13%
C/C(=N\Nc1ccc(S(N)(=O)=O)cc1[N+](=O)[O-])c1cccs1	-10	-1%	-15	1.8%	1.3	-21%
Cc1sc2ncn(CC(=O)Nc3ccccc3F)c(=O)c2c1-c1ccccc1	8	-2%[15.4 µM]	-1.1	-1.1%	-0.4	-8%
CCc1ccc(-c2nnn(Cc3nc4ccccc4s3)n2)cc1	-3	-16%	0.7	-1.4%	2.2	0%
